LASV entry inh = Lassa virus entry inhibition; Lassa virus pseudotype entry inhibition, cell reporter; control for the full effect not named in the record; Potency, µM (highest dose often 37.9 µM), inactives show at the top dose activity change, negative = inhibition, actives largely listed as inhibitors; 300,000 tested, 1.2% active; AID 540256; active means well fitted inhibition curve with a large enough effect; inconclusive means small, poorly fitted or top-dose-only effect, or effect the other way; inactive means flat fitted curve, though single readings scatter; tested in HEK293 cells; note: % is set by controls: 0 for no effect and ±100 for the full control effect; nearly all actives have a fitted effect of over 50% in size; luciferase read-out
Cruzain Triton = blocks cruzain activity in presence of Triton detergent | P25779 | purified cruzain, Z-FR-AMC fluorescence, 0.01% Triton | Potency, µM, inactives show max response, negative = inhibition, usual class: inhibitors | 200,000 tested, 0.43% active | AID 1478;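 note: plate controls were neutral wells for no effect and buffer without enzyme for full effect; nearly all actives have a fitted effect of over 40% in size; top concentration of the series not given in the record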
Target sequence (P25779 123-467 limits assumed): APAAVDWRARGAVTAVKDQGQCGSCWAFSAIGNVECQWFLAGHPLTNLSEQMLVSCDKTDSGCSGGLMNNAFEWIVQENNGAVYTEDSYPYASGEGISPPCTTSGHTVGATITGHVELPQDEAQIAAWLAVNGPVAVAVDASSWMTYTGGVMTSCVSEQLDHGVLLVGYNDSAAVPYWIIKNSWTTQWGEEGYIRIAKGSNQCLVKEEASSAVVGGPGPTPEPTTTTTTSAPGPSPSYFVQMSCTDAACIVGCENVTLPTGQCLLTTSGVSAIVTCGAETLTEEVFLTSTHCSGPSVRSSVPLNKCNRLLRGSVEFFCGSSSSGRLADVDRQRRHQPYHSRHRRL
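Read-out: AMC fluorescence (360 nm excitation, 450 nm emission), four reads over 2 min, first-to-third difference used. Conditions: cruzain 1.5 nM, Z-FR-AMC 2 uM, pH 5.5 acetate, 5 mM DTT, 0.01% Triton X-100.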
NS1 function inh = blocks influenza NS1 protein function; S. cerevisiae slowed by influenza A NS1, growth recovery by OD600; AID 2326; 270,000 tested, 0.4% active; Potency, µM (titrated, usually from 46.1 µM), for inactives: top-dose activity, positive = more growth; active means well fitted rising curve with a large enough effect; inconclusive means small, poorly fitted or top-dose-only effect; inactive means no such curve, though single readings can be large or run the other way; note: nearly all actives have a fitted effect of over 50% in size
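Growth recovery, yeast-based: influenza A NS1 expressed in S. cerevisiae causes slow growth, and suppressors are detected by OD600. The parent strain without NS1 is used as positive control.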
SARS PLP yeast = inhibitors of SARS-CoV papain-like protease in yeast; S. cerevisiae expressing SARS-CoV PLpro, growth rescue; control for the full effect not named in the record; AID 485353; Potency, µM (doses to about 32.9 µM), for inactives: at the top dose activity, positive = growth rescue; 330,000 tested, 0.19% active; active means well fitted rising curve with a large enough effect; inconclusive means small, poorly fitted or top-dose-only effect; inactive means no such curve, though single readings can be large or run the other way; note: 0% is about no effect; nearly all actives have a fitted effect of over 55% in size; growth read by luminescence after 48 h
Cruzain inh noDet = inhibitors of Trypanosoma cruzi cruzain without detergent; Potency, µM, for inactives: max response, negative = inhibition, usual class: inhibitors; 200,000 tested, 2.3% active; purified cruzain, Z-FR-AMC fluorescence, no detergent; P25779;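 note: plate controls were enzyme without inhibitor for no effect and buffer without enzyme for full effect; nearly all actives have a fitted effect of over 40% in size; top concentration of the series not given in the record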
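Purified cruzain at 1.5 nM, pre-incubated 15 min with compound at room temperature in 100 mM sodium acetate pH 5.5, 5 mM DTT, 0.00005% Triton X-100. Reaction started with 2 uM Z-FR-AMC; AMC fluorescence increase over 60 s gives rate.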
2A StopGo = FMDV 2A StopGo reporter, luciferase signal; Potency, µM (top dose mostly 57.9 µM), without a hit: at the top dose signal change, negative = less light; AID 1159524; 410,000 tested, 1.2% active; human cells with a luciferase reporter of 2A StopGo recoding; control for the full effect not named in the record; active = well fitted falling curve with a large enough effect; inconclusive = small, poorly fitted or top-dose-only effect; inactive = no such curve, though single readings can be large or run the other way; tested in HEK293T cells; note: % is set by controls: 0 for no effect and ±100 for the full control effect; nearly all actives have a fitted effect of over 45% in size; luciferase light after 4 h
MARV entry inh = Marburg virus entry inhibition; Marburg virus pseudotyped entry inhibition, cell reporter; control for the full effect not named in the record; about a third of the inactives were read at about 46 µM; Potency, µM (doses to about 37.8 µM), for the others: at the top dose activity change, negative = inhibition, hits mostly inhibitors; 300,000 tested, 1.8% active; active = well fitted inhibition curve with a large enough effect; inconclusive = small, poorly fitted or top-dose-only effect, or effect the other way; inactive = flat fitted curve, though single readings scatter; tested in HEK293 cells; about a fifth of its hits are not listed in these tables; note: % is set by controls: 0 for no effect and ±100 for the full control effect; luciferase read-out
RE007 growth inh = less growth of the S. pombe RE007 Vpr strain; S. pombe RE007 Vpr strain, BacTiter-Glo ATP luminescence, 24 h; control for the full effect not named in the record; Potency, µM (top dose mostly 92.2 µM), for inactives: at the highest dose activity change, negative = less growth; 360,000 tested, 0.21% active; AID 651644; active = well fitted falling curve with a large enough effect; inconclusive = small, poorly fitted or top-dose-only effect; inactive = no such curve, though single readings can be large or run the other way;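 note: % is set by controls: 0 for no effect and ±100 for the full control effect; nearly all actives have a fitted effect of over 50% in size; the assay follows cell death caused by Vpr and the record does not say whether a fall means rescue or toxicity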
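Fission yeast RE007 carrying one integrated HIV-1 vpr copy, seeded at OD 0.01 in PMG+AL medium with 23 nL pinned compound. Grown 24 h at 30 degrees; viability read by BacTiter-Glo luminescence after 5 min.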
An asterisk follows results filed as active; ? = inconclusive; · = no result given; & = joins results of further samples; [ ] = remark or other dose. Unless noted, calls come from the whole dose curve; as a rule, active = well fitted curve in the direction sought with a large enough effect; inconclusive = small, poorly fitted or top-dose-only effect, or another doubt; inactive = no such curve, though single readings can be large; an effect the other way counts as inactive or inconclusive. Potency is the fitted concentration of half-maximal effect.

smiles	NS1 function inh	RE007 growth inh	Cruzain inh noDet	SARS PLP yeast	2A StopGo	MARV entry inh	Cruzain Triton	LASV entry inh
Cc1ccc(-c2cc(N)n[nH]2)cc1	10%	-6%	1%	?	·	7%	0.7%	7%
Cc1cc(OCCSc2nnc(-c3cccs3)n2C)ccc1Cl	-169%	-17%	16%	-5%	-10%	?	-7.1%	-7%
COCCCNC(=O)CCCCn1c(=O)c2ccccc2n(CC(=O)Nc2ccc(C)cc2C)c1=O	·	·	-8%	·	-1%	?	-1.6%	-12%[46.1 µM]
Cc1cccc(NC(=O)CSC2=Nc3ccccc3C3=NC(CCC(=O)NCc4ccco4)C(=O)N23)c1 (stereo unspecified)	·	·	21%	·	-3%	-2%[46.1 µM]	-6.2%	3%[46.1 µM]
C=CCOC(=O)Nc1c(C(=O)OC)[nH]c2ccc(Cl)cc12	-5%	-15%	5%	0%	?	-2%	-2.5%	-6%
Cc1[nH]nc(-c2ccc(O)c(C)c2O)c1Oc1ccccc1	-50%	22%	-7%	-16%	-21%	27%	-11%	13%
COc1ccccc1OCCNC(=O)CCS(=O)(=O)c1ccccc1	·	2%	·	2%	-17%	22%	·	3%
O=C(NCC1COc2ccccc2O1)c1cc(S(=O)(=O)N2CCOCC2)c(Cl)cc1Cl (stereo unspecified)	·	0%	·	3%	?	-25%[46.1 µM]	·	?
CCOc1ccccc1NC(=O)Cn1c(=O)n(-c2ccc(C)cc2)c(=O)c2c1cnn2C	·	·	4%	·	0%	21%[46.1 µM]	-0.6%	-17%[46.1 µM]
O=C1COc2ccc(C(=O)CSc3nnc(Cc4cccs4)n3-c3ccccc3)cc2N1	0%	11%	?	-1%	0%	?	-7.0%	-14%
O=C(N/N=C/c1ccc(Cl)cc1)c1sccc1OCc1ccc(F)cc1	2%	5%	3%	2%	4%	?	1.2%	?
FC(F)(F)c1cc(Cl)c2nc(-c3ccccc3)cn2c1	-11%	-19%	-5%	2%	35%[activator]	?	1.0%	?
COc1ccc(C(=O)OCC(=O)N(C)C2CCS(=O)(=O)C2)cc1S(=O)(=O)N1CCCc2ccccc21 (stereo unspecified)	·	2%	·	7%	23%	-2%[46.1 µM]	·	-2%
CCC1CCCCN1C1Sc2ccc(C(=O)OC)cc2NC1=O (stereo unspecified)	-59%	10%	7%	6%	2%	?	-6.9%	-9%
O=c1[nH]c2ccc(S(=O)(=O)N3CCCC3)cc2[nH]1	0%	-8%	·	2%	5%	10%[46.1 µM]	·	4%[46.1 µM]
CCCCNC(=O)CCn1c(=S)[nH]c2cc3c(cc2c1=O)OCO3	?	-8%	3%	12%	6%	2%	2.2%	2%
Cc1ccc(-n2nc3c(N4CCCC(C(=O)NCc5ccc(Cl)cc5)C4)nnc(C)c3c2C)cc1 (stereo unspecified)	·	·	-1%	·	5%	·	-5.1%	9%[46.1 µM]
CC(=O)N1N=C(c2ccc(C)cc2)OC1c1ccc(C(C)C)cc1 (stereo unspecified)	3%	13%	0%	-13%	31%[activator]	?	-1.8%	?
C/C(=N/NC(=O)CNC(=O)c1cccs1)c1ccco1	0%	1%	·	0%	6%	-17%	·	2%
COCCn1nnnc1C(c1ccccc1OC)N1CCN(c2ccccc2F)CC1 (stereo unspecified)	-10%	-10%	?	11%	-7%	-14%&-14%	0.8%	-16%
O=C1NCCSC1c1ccccc1 (stereo unspecified)	·	-1%	·	·	-8%	8%[46.1 µM]	·	15%
Cc1ccc(O)c(NC(=O)c2cccc(S(=O)(=O)N3CCCCC3)c2)c1	-7%	2%	-9%	-14%	-8%	-16%[46.1 µM]	-4.3%	-14%
Cc1cccc(C(C)C)c1NC(=O)c1ccc(OCC2CCCO2)cc1 (stereo unspecified)	·	2%	·	-1%	0%	-13%	·	-15%
Cc1ccc(S(=O)(=O)n2nc(C)c(S(=O)(=O)N3CCOCC3)c2C)cc1	5%	10%	·	7%	0%	-2%[46.1 µM]	·	25%[46.1 µM]
COc1ccc(C2C(C#N)=C(N)Oc3n[nH]c(C)c32)cc1CSc1ccccn1 (stereo unspecified)	12%	-12%	-19%	0%	-22%	-8%	-10%	7%
Cc1cc(N2CCCC2)nc2ccccc12	0%	4%	·	-1%	-14%	-17%	·	-19%
Cc1cnc(C(=O)Nc2ccc(S(=O)(=O)NCC(C)C)cc2)cn1	4%	-4%	·	0%	50%[activator]	?	·	-1%
Cc1ccc(C(=O)Nc2nc(-c3ccco3)c(-c3ccco3)s2)o1	·	26%	·	3%	-20%	0%	·	-8%
CCOC(=O)c1c(NC(=O)COC(=O)c2ccc(Cl)nc2)sc(C(=O)N(C)C)c1C	·	7%	·	-2%	-27%	13%	·	17%
CCCCOP(=O)(c1ccc(N(C)C)cc1)C(O)c1cccnc1 (stereo unspecified)	6%	-13%[3.69 µM]	6%	0%	-15%	5%	1.0%	13%
CCOc1ccccc1N1CCN(CC(=O)c2c(N)n(C)c(=O)n(C)c2=O)CC1	·	?	·	1%	-7%	15%[46.1 µM]	·	-1%
Cc1cccc(C)c1N1CCN(c2nc(N(C)C)oc(=O)c2C#N)CC1	9%	2%[3.69 µM]	?	-7%	1%	2%	2.2%	0%
O=C(c1ccc2ccccc2c1)C1CCCN(C(=O)CN2C(=O)CSC2=O)C1 (stereo unspecified)	-4%	12%	·	1%	11%	17%[46.1 µM]	·	18%[46.1 µM]
CC(=O)n1c2ccccc2c2c1c1ccccc1n2C	-54%	-4%	?	2%	-8%	-12%	-0.4%	4%
CCC(c1nnc(SCC(=O)N2CC3(C)CC2CC(C)(C)C3)o1)N(C)C (stereo unspecified)	6%	3%	-1%	6%	13%	?	1.6%	12%
COC(=O)c1sccc1NC(=O)c1c(-c2ccccc2)noc1C	-32%	-4%	-14%	-19%	?	?	-5.1%	12%
Cc1ccc(CSCCNC(=O)CN(c2cccc(C)c2C)S(=O)(=O)c2ccccc2)cc1	·	·	0%	·	-23%	?	-5.4%	?
CCc1ccc(NC(=O)CSc2cn(CC(=O)N3CCCC3)c3ccccc23)cc1	·	·	16%	·	-18%	·	-4.6%	15%[46.1 µM]
Cc1c(NC(=O)C(C)OC(=O)c2ccc(Br)o2)c(=O)n(-c2ccccc2)n1C (stereo unspecified)	·	-10%	·	0%	18%	-3%[46.1 µM]	·	·
OCCCCCNc1ncnc2ccccc12	4%	0%	-12%	1%	?	?	-1.4%	-24%
O=c1[nH]c(=S)n(-c2cccc(Cl)c2)c(O)c1C=NCCN1CCNCC1	3%	7%	·	1%	-9%	8%[46.1 µM]	·	-9%[46.1 µM]
Cc1cc(NC(=O)CNC(=O)C2CCCCC2)no1	1%	-5%	2%	6%	·	-11%	-3.7%	1%
CCCOc1ccc(C(=O)N(Cc2ccc(N(C)C)cc2)CC2CCCO2)cc1 (stereo unspecified)	·	·	18%	·	44%[activator]	-15%[46.1 µM]	-3.9%	?
COc1ccc(S(=O)(=O)Cc2ccc(C(=O)NCc3ccco3)o2)cc1	-7%	-5%	5%	2%	-24%	·	-0.3%	·
COc1ccc(-c2cc(-c3ccccc3)n[nH]2)c(O)c1	-60%	?	·	-3%	39%[activator]	?	·	?
Cc1ccc(C)c(NC(=O)C2CCCN(S(=O)(=O)c3c(C)noc3/C=C/N(C)C)C2)c1 (stereo unspecified)	21%	2%	?	0%	-5%&-14%	-21%&-21%[46.1 µM]	-3.4%	?
COc1ccccc1CNC(=O)C1CCCN(c2cnccn2)C1 (stereo unspecified)	-14%	15%	·	1%	-4%	1%[46.1 µM]	·	0%[46.1 µM]
Fc1ccccc1Nc1ncnc2c1nnn2Cc1ccccc1	-41%	-9%	·	-1%	12%	·	·	·
CSc1nc(Oc2ccc(=O)[nH]n2)nc(N(C)C)n1	-9%	-2%	-2%	-4%	-18%	3%&3%[46.1 µM]	1.9%	-20%
CN=C1SC(CC(=O)Nc2c(C)cccc2C)C(=O)N1/N=C/c1cccs1 (stereo unspecified)	11%	6%	6%	6%	-22%	0%	0.1%	-17%

Carrying on:
smiles	NS1 function inh	RE007 growth inh	Cruzain inh noDet	SARS PLP yeast	2A StopGo	MARV entry inh	Cruzain Triton	LASV entry inh
Cc1noc2ncc(C(=O)c3cc(F)ccc3O)cc12	-6%	-26%	-5%	11%	0%	-2%	0.8%	9%
CCCCN1C(=S)SC(C)(C)C1/[N+]([O-])=C/c1ccc(S(=O)(=O)NC)cc1 (stereo unspecified)	-5%	21%	·	1%	-11%	0%[46.1 µM]	·	-21%
O=C(CN1C(=O)NC2(CCCCCC2)C1=O)c1ccc(OC(F)F)cc1OC(F)F	·	-19%	·	3%	?	?	·	-24%[46.1 µM]
CC(O)(Cc1ccccn1)Cc1ccccn1	·	10%	·	·	-3%	3%[46.1 µM]	·	0%[46.1 µM]
COC(=O)c1[nH]c2ccccc2c1NC(=O)C(C)N1CCN(C(=O)c2ccco2)CC1 (stereo unspecified)	-2%	14%	2%	-3%	-13%	15%	-2.0%	5%
CCC(=O)N1CCN(c2ccc(NC(=O)c3ccc(C#N)cc3F)cc2Cl)CC1	·	-10%	·	1%	-32%	-3%[46.1 µM]	·	28%[46.1 µM]
N/C(=N\OC(=O)c1cccc2ccccc12)c1ccncc1	-4%	9%	·	-1%	32%[activator]	·	·	·
CC(=O)Nc1cccc(/C(C)=N/NS(=O)(=O)c2ccccc2)c1	7%	11%	·	0%	17%	0%[46.1 µM]	·	0%[46.1 µM]
Cc1ccc(N/C=C/C(=O)c2ccco2)c(O)c1	3%	-15%	·	-6%	0%	·	·	·
Cc1cccc(N2CCN(C(=O)c3cccc(N4C(=O)C5C6C=CC(C6)C5C4=O)c3)CC2)c1C (stereo unspecified)	-1%	-15%	·	-1%	-21%	·	·	·
CCOC(=O)c1c(NC(=O)CSc2nnc(-c3ccc(OC)cc3)o2)sc2c1CCC2	·	2%	·	·	-14%	2%&2%	·	11%
Cc1cccc(C)c1NC(=O)Cn1cc(C(=O)C2CC2)c2ccccc21	·	·	21%	·	0%	?	-1.1%	-11%[46.1 µM]
O=C1NC(c2cc3ccccc3nc2Cl)Nc2ccccc21 (stereo unspecified)	5%	6%	-3%	-3%	?	7%	-3.2%	?
C=CCn1c(COc2ccccc2F)nnc1SCC(=O)NC(=O)NCc1ccco1	10%	-6%	-13%	3%	·	21%	2.2%	6%
